# Rango dissoc inh = prevents RanGTP from dissociating the Rango-importin beta complex. O95149+P62826. Biochemical FRET Rango-importin beta, RanGTP-induced dissociation. Potency, µM (highest dose often 46.1 µM), for the others: at the highest dose activity change, negative = inhibition. hit rate 0.071% among 340,000; active means falling FRET ratio curve, often poorly fitted, with flat reads before Ran was added; inconclusive means other falling curves, or compound fluorescence or quenching; inactive means flat or rising ratio curve;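 further: potency means the concentration at half of the fitted maximal effect; % of control where 0% means no effect; nearly all actives have a fitted effect of over 45% in size; -100% = wells without RanGTP and RCC1; the record marks most hits as doubtful in a second field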
#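 Rango FRET biosensor (snurportin-1 IBB flanked by N-terminal EYFP and C-terminal CFP10) at 0.1 uM, with 0.25 uM importin beta in PBS, 1mM DTT, 0.02% Tween-20, 0.1% BSA. 0.6 uM Ran, 2mM GTP and 0.2 uM RCC1 were then added for 45 min at room temperature. Inhibition read as loss of FRET rise.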
# Rango-impB inh = prevents formation of the Rango-importin beta complex | Q14974 | Rango CFP/YFP FRET sensor + importin beta, 45 min | Potency, µM (doses to about 92.2 µM), for inactives: top-dose inhibition of complex formation | hit rate 0.031% among 340,000; active = rising FRET ratio curve, often small or poorly fitted; inconclusive = mostly compound fluorescence or quenching in the first reads; inactive = flat curves in all reads;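 further: potency means the concentration at half of the fitted maximal effect; 0% = DMSO wells and 100% = buffer wells lacking importin beta; nearly all actives have a fitted effect of over 15% in size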
#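 FRET biosensor Rango (snurportin 1 IBB between N-terminal EYFP and C-terminal Cerulean), 50 nM in PBS/1 mM DTT/0.02% Tween-20/0.1% BSA, preincubated 5 min RT with compound; 0.125 microM importin beta added, 45 min RT, CFP/YFP FRET ratio read.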
# GLA inh pH 4.5 = blocks human alpha-galactosidase A at pH 4.5. purified enzyme, 4-MU-alpha-Gal fluorescence, pH 4.5. 230,000 tested, under 10 active. activity change, negative = inhibition, % at 105 µM; inconclusive = small, poorly fitted or top-dose-only inhibition, or a rising curve; inactive = flat fitted curve, though single readings scatter; no compound was filed as active;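 further: 0% = full activity with enzyme and -100% = basal without enzyme; dose as in the result columns while the protocol names 77 µM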
# Target sequence (P06280 whole entry, looked up): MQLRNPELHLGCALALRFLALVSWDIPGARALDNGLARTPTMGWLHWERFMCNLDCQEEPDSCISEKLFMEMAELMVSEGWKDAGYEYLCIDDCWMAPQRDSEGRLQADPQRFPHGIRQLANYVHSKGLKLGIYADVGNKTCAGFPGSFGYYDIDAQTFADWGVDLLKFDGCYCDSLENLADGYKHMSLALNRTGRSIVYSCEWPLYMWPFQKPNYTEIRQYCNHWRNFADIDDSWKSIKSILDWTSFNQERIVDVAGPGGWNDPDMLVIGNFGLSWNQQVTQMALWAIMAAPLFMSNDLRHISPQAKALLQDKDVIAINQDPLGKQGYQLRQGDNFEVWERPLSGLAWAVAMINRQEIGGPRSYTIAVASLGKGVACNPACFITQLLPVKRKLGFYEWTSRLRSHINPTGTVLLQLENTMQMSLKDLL
# miR-21 reporter = miR-21 reporter, rising signal; AID 2288; 340,000 tested, under 10 active; HeLa miR-21 FLuc reporter, luciferase, 48 h; Potency, µM (titrated, usually from 38.3 µM), without a hit: top-dose reporter change, positive = more light; active = well fitted rising curve with a large enough effect; inconclusive = small, poorly fitted or top-dose-only effect; inactive = no such curve, though single readings can be large or run the other way;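 further: % of control where 0% means no effect; miR-21 action dims this reporter so a rising signal means less miR-21 action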
#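 Using DMEM plus 10% FBS, HeLa miR-21-FLuc cells are incubated with test compounds (final up to about 40uM) for 48 hours; firefly luciferase signal is then imaged following reagent-mediated lysis.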
# An asterisk follows results filed as active; ? = inconclusive; · = no result given; & = joins results of further samples. These rows are one share of the data; the hit share may differ from the screen's.
# Start of the listing, in advance, 5 compounds:
SMILES,Rango dissoc inh,Rango-impB inh,GLA inh pH 4.5,miR-21 reporter
Cc1cccc(C)c1NC(=O)CN(C)CC(=O)Nc1ccc(F)c(Cl)c1,-5%,-0.2%,2,2%
ONc1cccnc1-n1nc(C(F)(F)F)cc1C(F)(F)F,·,·,-26,0%
CC(Oc1ccc(-c2ccccc2)cc1)C(=O)N1CCOCC1 (configuration not stated),10%,1.5%,?,-18%
CCC(=O)Nc1sccc1C(=O)OC,-5%,-4.8%,-12,-6%
Nc1nc(NCC2CCCO2)nc(NCC2CCCO2)c1[N+](=O)[O-] (configuration not stated),14%,5.3%,-4,0%

# The list itself, from the start:
SMILES,Rango dissoc inh,Rango-impB inh,GLA inh pH 4.5,miR-21 reporter
Cc1cccc(C)c1NC(=O)CN(C)CC(=O)Nc1ccc(F)c(Cl)c1,-5%,-0.2%,2,2%
ONc1cccnc1-n1nc(C(F)(F)F)cc1C(F)(F)F,·,·,-26,0%
CC(Oc1ccc(-c2ccccc2)cc1)C(=O)N1CCOCC1 (configuration not stated),10%,1.5%,?,-18%
CCC(=O)Nc1sccc1C(=O)OC,-5%,-4.8%,-12,-6%
Nc1nc(NCC2CCCO2)nc(NCC2CCCO2)c1[N+](=O)[O-] (configuration not stated),14%,5.3%,-4,0%
N#Cc1c(C(F)(F)F)cc(-c2ccccc2)nc1SCC(=O)N1CCOCC1,3%,0.0%,-17,-2%
Brc1ccc(CSc2nnc(-c3cnccn3)n2Cc2ccco2)cc1,-7%,-3.7%,-8,5%
O=C(Oc1ccc(-c2nnco2)cc1)c1ccco1,22%,-0.3%,·,·
COc1ccc(-n2c(SCC(=O)NNC(=O)c3ccc(C)cc3)nnc2-c2ccncc2)cc1,-7%,-3.3%,-8,-2%
O=C(Nc1ccc(N2CCOCC2)nc1)c1ccc(C(F)(F)F)cc1,-13%,0.1%,-8,21%
CCOC(=O)N1CCN(C(=O)CC(C)S(=O)(=O)c2cc3c(cc2C)NC(=O)CO3)CC1 (configuration not stated),0%,-0.2%,·,0%
COC(=O)c1ccc(C23CC4(C2)[C@H](CN(C)[C@@H]4c2ccccc2)C3c2ccc(C(F)(F)F)cc2)cc1 (some centres not stated),5%,0.1%,-27&-9,-7%
COc1ccc(/C=C/C(=O)NCCc2ccc(S(N)(=O)=O)cc2)cc1,-13%,0.0%,0,-9%
COc1cc(OC)cc(-c2nnc(NC(=O)CCS(=O)(=O)c3ccc(C)cc3)o2)c1,-15%,0.2%,·,·
O=C(C1CC(=O)N(c2ccc(Cl)cc2)C1)N1CCCCCC1 (configuration not stated),-12%,0.9%,·,-10%

# Whole records, looked up by structure. Order of values: Rango dissoc inh, Rango-impB inh, GLA inh pH 4.5, miR-21 reporter
# N#Cc1c(C(F)(F)F)cc(-c2ccccc2)nc1SCC(=O)N1CCOCC1 is entered as 3%, 0.0%, -17, -2%
# O=C(C1CC(=O)N(c2ccc(Cl)cc2)C1)N1CCCCCC1 (configuration not stated) is entered as -12%, 0.9%, ·, -10%
# Cc1cccc(C)c1NC(=O)CN(C)CC(=O)Nc1ccc(F)c(Cl)c1 is entered as -5%, -0.2%, 2, 2%
# CCOC(=O)N1CCN(C(=O)CC(C)S(=O)(=O)c2cc3c(cc2C)NC(=O)CO3)CC1 (configuration not stated) is entered as 0%, -0.2%, ·, 0%
# CCC(=O)Nc1sccc1C(=O)OC is entered as -5%, -4.8%, -12, -6%

# Next entries
SMILES,Rango dissoc inh,Rango-impB inh,GLA inh pH 4.5,miR-21 reporter
CCCc1c(C(=O)N/N=C(/C)c2ccncc2)nnn1-c1nonc1N,0%,7.7%,·,-2%
CCN(CC)Cc1c(C(=O)N/N=C/c2ccccn2)nnn1-c1nonc1N,0%,5.6%,·,1%
Cc1cc(C)cc(OCCn2ccnc2)c1,-3%,2.6%,·,-5%
Cc1ccc(OCC(=O)Nc2ccc(N(C)C)cc2)cc1,0%,2.9%,1,-20%
CCOC(=O)Cn1cnc2c(nnn2-c2ccccc2)c1=O,15%,-1.6%,·,-2%
COC(=O)c1[nH]c2cccc(C)c2c1NC(=O)CN1CCN(C(=O)c2ccco2)CC1,12%,2.9%,8,-9%
CCOC(=O)C(Cc1c[nH]c2ccccc12)NC(=O)c1ccccc1Br (configuration not stated),3%,-1.4%,·,-43%
O=C(CSc1ncc(-c2ccccc2)nn1)NCc1ccco1,1%,-0.2%,-2,-1%
Cn1c(=O)c2c(ncn2CC(O)CNc2ccc(F)cc2)n(C)c1=O (configuration not stated),0%,1.6%,-3,0%
CCOC(=O)C1CCCN(c2c(NCCc3ccccc3)c(=O)c2=O)C1 (configuration not stated),-7%,-0.5%,3,4%
Cc1cnc(NC(=O)c2ccc3c(c2)OCCO3)s1,-3%,0.3%,·,·
Cc1cccc2sc(NNC(=O)C3COc4ccccc4O3)nc12 (configuration not stated),-5%,3.2%,-5,-16%
C/C(=C\c1ccccc1F)C(=O)c1c(C)cc(C)[nH]c1=O,1%,0.8%,·,-1%
Cn1c(SCC(=O)Nc2ccccc2C(F)(F)F)nc2c(c1=O)SCC2,16%,-1.7%,·,6%
CCN(CC)CCNC(=O)c1ccc(NC(=O)Cc2ccc(OC)c(S(=O)(=O)N3CCOCC3)c2)cc1,2%,-0.8%,·,·
COc1ccc(CNC(=O)C(=O)NCC2OCCN2S(=O)(=O)c2cccs2)cc1 (configuration not stated),-3%,-2.9%,-5,-8%
NC(=S)NCc1cccnc1,-4%,-0.6%,7,0%
Cc1c(Cl)cccc1NC(=O)CNc1cccc(S(=O)(=O)N(C)C)c1,1%,-1.4%,4,-1%
CN(Cc1ccccc1)C(=O)COC(=O)c1cc(NS(=O)(=O)c2cccs2)ccc1O,24%,-1.8%,-4,13%
CCCOC(=O)CSC1=C(C#N)C(c2ccccc2OCC)C(C#N)C(=O)N1 (configuration not stated),-8%,-1.8%,2,-12%
O=C1CCCc2c1cc(C(=O)NCCCN1CCOCC1)c(=O)n2-c1ccc(Cl)cc1,0%,10%,3,-9%
Cc1nc(C)c(C(=O)N(c2ccccc2F)C(C(=O)NCC2CCCO2)c2ccccc2)s1 (configuration not stated),10%,-5.2%,·,-1%
O=S(=O)(c1ccc(NCc2ccc(F)cc2)nc1)N1CCCC1,0%,-2.9%,-4,-5%
CCN(CC)CCNC(=O)c1ccc(Cl)c(S(=O)(=O)Nc2ccccc2OC)c1,4%,0.0%,1,2%
CC1(c2ccc3ccccc3c2)NC(=O)N(CC(=O)N2CCN(c3ccccc3O)CC2)C1=O (configuration not stated),9%,0.8%,·,9%
CCc1cc(=O)oc2cc(OC(C)C(=O)NCC3CCC(C(=O)O)CC3)c(Cl)cc12 (configuration not stated),3%,1.8%,·,-7%
COc1cccc(/C=N/NC(=S)Nc2cccc(C(=O)O)c2)c1O,?,?,1,0%
CCOC(=O)c1c(C)[nH]c(C(=O)COC(=O)C(C)Oc2ccc(Cl)cc2Cl)c1C (configuration not stated),-12%,6.2%,1,-8%
Nc1ccc(/C=C/C(=O)c2ccco2)cc1,?,?,-3,-35%
Cc1ccc(C)c(COc2coc(CN3CCN(C(=O)c4ccco4)CC3)cc2=O)c1,3%,-2.0%,·,·

# Three compounds from above, sorted by number of heavy atoms, high to low:
SMILES,Rango dissoc inh,Rango-impB inh,GLA inh pH 4.5,miR-21 reporter
CCc1cc(=O)oc2cc(OC(C)C(=O)NCC3CCC(C(=O)O)CC3)c(Cl)cc12 (configuration not stated),3%,1.8%,·,-7%
Cc1c(Cl)cccc1NC(=O)CNc1cccc(S(=O)(=O)N(C)C)c1,1%,-1.4%,4,-1%
COc1cccc(/C=N/NC(=S)Nc2cccc(C(=O)O)c2)c1O,?,?,1,0%

# The list continues.
SMILES,Rango dissoc inh,Rango-impB inh,GLA inh pH 4.5,miR-21 reporter
COc1ccc(S(=O)(=O)N2c3ccccc3OCC2c2ccccc2)cc1 (configuration not stated),-15%,1.5%,-2,27%
CCOC(=O)Cn1cnc2c(nnn2Cc2ccc(Cl)cc2)c1=O,8%,0.9%,1,-2%
Cc1cccc(Cn2cnc3c(nnn3Cc3ccc(F)cc3)c2=O)c1,-17%,-0.4%,1,0%
CN1CCN(C(=O)CC23CC4CC(CC(C4)C2)C3)CC1,-15%,2.1%,6,-7%
COC(=O)c1cc(NC(=O)c2ccc([N+](=O)[O-])cc2)c(=O)oc1C,0%,-2.1%,3,0%
CCOC(=O)c1[nH]c(C)c(C(=O)NC(C)CC)c1C (configuration not stated),19%,5.8%,3,-1%
COC(=O)[C@H](C)NC(=O)Nc1ccc(OC)cc1OC,0%,-12%,0,0%
COc1ccc(C2CC(c3ccccc3)=NN2C(=O)COC(=O)c2ccc(Cl)nc2)cc1 (configuration not stated),-8%,?,-5,-19%
CCC1(CC)NC(=O)NC1=O,-9%,-5.0%,-2,-8%
CNC(=O)/C(C#N)=C/c1cn(CC(=O)NCc2ccco2)c2ccccc12,-17%,?,1,-1%
CN(Cc1nc(Cc2cccc(F)c2)no1)CC1COCCO1 (configuration not stated),-7%,2.7%,6,5%
Cn1c(C(=O)N2CCN(Cc3ccc4c(c3)OCO4)CC2)cc2c(=O)n(C)c3ccccc3c21,16%,-3.9%,-2,-1%
CC(NC(=O)NCCCn1ccnc1)(C(F)(F)F)C(F)(F)F,22%,10%,-14,-1%
CC(C)(C)n1nnnc1CN1CCN(C2CCCC2)CC1,1%,1.2%,5,-4%
Cc1ccc(C(=O)Nc2cc(=O)n(C)c(=O)n2C)cc1C,-2%,0.2%,5,1%
NC(=O)CN1C(=O)C(=O)N(Cc2cccc(C(F)(F)F)c2)C1=O,2%,-2.0%,·,1%
CCC(=O)n1nc(-c2ccco2)nc1SCc1ccccc1,2%,-0.1%,0,-31%
Cn1c(Cl)c(/C=N/OC(=O)C(C)(C)C)c2ccccc21,0%,2.1%,-15,2%
O=C(c1cccs1)N1CCCC(N2CCN(c3ccc(F)cc3)CC2)C1 (configuration not stated),24%,4.2%,·,0%
CCOc1ccc(NC(=O)Nc2nc3ccc(S(C)(=O)=O)cc3s2)cc1,-2%,-0.4%,·,3%
O=C(NCc1ccccc1)c1ccc(NC(=O)C2CCCC2)cc1,0%,-3.5%,·,·
CCc1ccccc1Nc1nc(N)nc(COC(=O)C2CCN(C(=O)c3ccc(F)cc3)CC2)n1,10%,3.7%,·,·
Cc1ccc(N2C(=O)N(CC(=O)N3CCCc4ccccc43)C(=O)C2C)cc1 (configuration not stated),3%,2.6%,2,3%
O=C(N/N=C1\CCc2ccccc21)c1ccc(O)cc1,-13%,-2.7%,-15,-51%
CC(C(=O)Nc1ccccc1)c1ccc(-c2ccccc2)c(F)c1 (configuration not stated),0%,0.1%,-8,18%
O=C(Nc1ccnn1C1CCN(Cc2ccccc2F)CC1)C1CCCC1,-19%,0.3%,·,-4%
Nc1ccc(Cc2ccc([N+](=O)[O-])cc2)cc1,2%,0.2%,·,·
O=S(Cc1ccc(Cl)cc1)CC(O)(c1ccccc1)c1ccccc1 (configuration not stated),-26%,3.0%,2,?
CC(C)NC(=O)C1CCN(C2CCN(C(=O)C3=CCCC3)CC2)CC1,-16%,?,7,-1%
COC(=O)Nc1sc2c(c1C(=O)NCc1ccco1)CCCC2,-12%,-4.3%,0,3%
Cc1ccc(S(=O)(=O)N(C)CC(=O)N2CCN(Cc3ccc4c(c3)OCO4)CC2)cc1,-10%,-3.8%,·,7%
CCCOc1cccc(C(=O)Nc2cccc3ncccc23)c1,-2%,9.2%,·,5%
O=[N+]([O-])c1ccc(Cl)c(/C=N/NC(=S)Nc2ccccc2)c1,16%,0.1%,5,0%
Cn1c(=O)c(C(=O)NCCc2ccc(Cl)cc2)c(O)c2ccccc21,20%,-0.5%,·,-2%
O=C(Nc1nnc(COc2ccc(Cl)cc2)s1)C1CCCO1 (configuration not stated),1%,0.2%,-2,-14%
CC(=O)c1cn(-c2ccc(Cl)cc2)c(=O)[nH]c1=O,-7%,-1.6%,·,-7%
COc1ccc(CN2CCC(C(=O)c3ccc(Cl)cc3)CC2)cc1,-25%,4.1%,·,0%
CN(C)c1ccnc(NCc2ccccc2)c1C#N,1%,-0.1%,-6,-45%
O=C(CN1CCCCCCC1)N/N=C/c1ccc(F)c(F)c1,-2%,3.2%,-2,-10%
Cc1ccc(NC(=S)N(C)C)cc1C,8%,-1.2%,3,4%
